Source: PubChem BioAssay (several laboratories)
Beta apoptosis: blocks beta cell apoptosis | INS-1E cytokine-induced death, ATP luminescence, 48 h; percent of positive-control rescue, neutral wells zero | protection from apoptosis, % (no concentration beside the values) | 300,000 compounds, 0.8% hits;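 active means all replicates at 75% or more, or half of them and the mean; inconclusive means half reach 75% but not the mean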;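 further: 0% = cytokine-treated negative control wells and 100% = positive control rescue; higher means more ATP so stronger rescue from cytokine killing; wells of about 40 µL received 100 nL stock; the first replicate is given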
FGF22 binding: FGF22 (human) thermal shift binding; calls only at 9.99 µM; 340,000 compounds, 1.5% hits; recombinant FGF22 thermal shift, SYPRO orange fluorescence; percent of sucrose octasulfate shift, DMSO zero;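 active means melting point raised past a set limit in the mean and every replicate; inconclusive means no clear call; three in four hits are not shown here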
Target sequence (Q9HCT0 whole entry, looked up): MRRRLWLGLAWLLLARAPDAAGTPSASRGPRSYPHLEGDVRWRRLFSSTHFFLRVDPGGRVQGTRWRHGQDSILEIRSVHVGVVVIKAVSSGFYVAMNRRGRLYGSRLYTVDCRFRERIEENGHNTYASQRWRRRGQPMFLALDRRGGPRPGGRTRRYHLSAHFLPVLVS
AF4-AF9 inh: inhibitors of human MLL-AF4/AF9 interaction; AID 651704; P42568; 350,000 compounds, 0.47% hits; inhibition, % at 10 µM; AlphaScreen, biotin-AF4 peptide binding to FLAG-AF9;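 active means every replicate reaching a set inhibition limit, whatever the replicate mean, cut at about 25% in these data; inconclusive means mean inhibition reaches that limit but some replicates miss it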;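 further: 0% = plate neutral control median and 100% = total signal loss; the record names both 10 and 1 µM as test concentration; the first replicate is given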
Target sequence (P42568 whole entry, looked up): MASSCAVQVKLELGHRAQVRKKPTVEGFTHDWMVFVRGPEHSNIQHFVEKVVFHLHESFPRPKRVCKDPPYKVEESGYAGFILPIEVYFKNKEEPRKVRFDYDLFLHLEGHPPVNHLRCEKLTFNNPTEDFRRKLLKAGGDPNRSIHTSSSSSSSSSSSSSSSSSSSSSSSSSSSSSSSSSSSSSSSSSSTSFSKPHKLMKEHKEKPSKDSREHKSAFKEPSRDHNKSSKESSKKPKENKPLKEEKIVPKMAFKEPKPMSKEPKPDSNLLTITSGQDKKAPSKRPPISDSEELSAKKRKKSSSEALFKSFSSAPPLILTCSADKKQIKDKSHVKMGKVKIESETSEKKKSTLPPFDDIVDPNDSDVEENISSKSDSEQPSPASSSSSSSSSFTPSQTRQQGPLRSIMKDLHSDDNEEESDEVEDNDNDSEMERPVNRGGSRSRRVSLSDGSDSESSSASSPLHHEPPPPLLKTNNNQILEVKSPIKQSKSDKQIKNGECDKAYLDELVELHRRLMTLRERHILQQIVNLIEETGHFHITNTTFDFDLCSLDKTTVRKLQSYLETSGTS
T cruzi repl: T. cruzi replication inhibition; AID 1885; 300,000 compounds, 1.4% hits; T. cruzi beta-gal in NIH3T3, luminescence, 90 h; inhibition, % (test concentration not listed);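 active means mean inhibition across valid replicates above about 55%, limit read from the data; inconclusive means mean below that limit but half or more replicates reach it; inactive means mean below it, under half of replicates reach it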;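 further: signal also drops with host cell toxicity which is not excluded here; 0% = plate median of DMSO wells and 100% = zero luminescence signal; higher percent means less beta-gal luminescence so fewer parasites; stock transfer was 50 nL into about 50 µL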
Ecoli growth: inhibitors of Escherichia coli growth; OD600 absorbance (test concentration not listed); OD600, 23 h; active compounds read low; 330,000 compounds, 0.21% hits; AID 1053175;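 active means OD600 absorbance below the run mean of sample wells minus 3.6 SD, in any replicate, cut at about 0.56 in these data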;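 further: stock transfer was 300 nL into about 60 µL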
UCH37 DUB inh: blocks the human deubiquitinase UCH37; AID 588478; inhibition, % (no concentration beside the values); purified proteasome/UCH37, Ub-AMC cleavage fluorescence; 330,000 compounds, 0.33% hits; Q9Y5K5;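 active means mean of two replicates above 20%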;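 further: 0% = compound-free wells with enzyme and 100% = wells lacking proteasome; stock transfer was 100 nL into about 20 µL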
Target sequence (Q9Y5K5 whole entry, looked up): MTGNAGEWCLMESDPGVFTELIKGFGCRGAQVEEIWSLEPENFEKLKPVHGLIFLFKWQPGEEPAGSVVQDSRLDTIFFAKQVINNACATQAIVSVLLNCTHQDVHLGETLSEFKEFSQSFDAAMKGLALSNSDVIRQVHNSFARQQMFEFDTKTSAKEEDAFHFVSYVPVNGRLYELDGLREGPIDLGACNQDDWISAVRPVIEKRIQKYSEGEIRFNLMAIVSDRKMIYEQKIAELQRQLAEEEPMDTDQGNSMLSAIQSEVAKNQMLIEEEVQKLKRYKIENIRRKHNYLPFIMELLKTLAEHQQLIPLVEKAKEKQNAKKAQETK
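Assay system: Proteasome-bound UCH37. Buffer or medium: pH 7.4 Tris-HCl (50 mM) with ovalbumin, ATP-MgCl2, DTT. Incubation: 30 min preincubation with enzyme, 25 min cleavage at room temperature. Measured by: fluorescence, ex 355 nm, em 460 nm. Read-out basis: percent inhibition. Control set: wells without proteasome as full block, compound-free enzyme plus substrate as uninhibited.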
Ecoli rRNA inh: inhibitors of bacterial rRNA selective over humanized ribosomes | E. coli WT GFP vs humanized-ribosome RFP mutants, fluorescence, 24 h; active compounds read low; DMSO median 0, no signal -100 | GFP signal change (wild-type ribosome), % (concentration not given with the values) | 350,000 compounds, 1.6% hits | AID 720706;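 active means significant combined selectivity score with lowered wild-type GFP, culture density cut under 30%, mutant RFP and density less affected; inactive means any of these conditions unmet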; further: one replicate is shown; some compounds called inactive have numbers as strong as hits
Bfl-1 A1 inh: inhibitors of the anti-apoptotic protein A1, read as caspase activation | caspase activation, % (no concentration beside the values) | AID 2462 | 330,000 compounds, 0.066% hits | MEF A1-2A-BIM cells, Caspase-Glo 3/7 luminescence, 3 h; percent of clofoctol response, vehicle zero;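 active means over half of replicate activation scores above 10%, or exactly half above 10 with the replicate mean above 10; inconclusive means replicate mean below 10 yet half the replicates above 10; inactive means over half of replicates below 10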;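 further: wells of about 30 µL received 50 nL stock; many hits fall short of the cut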
Ecoli rRNA inh OD600: second read-out of Ecoli rRNA inh, no call of its own (marks repeat the call); OD600 change, %; measured here: OD600 growth;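 optical density of the mix in the first replicate; 0 = DMSO median and -100 = no signal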
Ecoli rRNA inh RFP: recorded beside Ecoli rRNA inh, whose call it bears; RFP signal change, %; measured here: RFP humanized mutant strains;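 first replicate; 0 = DMSO median and -100 = no signal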
The depositor's hits bear a star; i = inactive; ? = inconclusive; · = not tested or not shown; + = active, no number.

SMILES	Beta apoptosis	FGF22 binding	AF4-AF9 inh	T cruzi repl	Ecoli growth	UCH37 DUB inh	Ecoli rRNA inh	Ecoli rRNA inh OD600	Ecoli rRNA inh RFP	Bfl-1 A1 inh
COc1ccc(-n2ccnc2CN2CCCC(CO)(Cc3cccc(OC)c3)C2)cc1 (stereo not given)	7.2	i	0.4	4.1	0.712	3.8	-4.9	-3.9	0.2	1.9
O=C1C2C3CC(C(Br)C3Br)C2C(=O)N1c1nccs1 (stereo not given)	-10.5	i	-3.4	-15.1	0.665	1.9	-0.6	0.0	2.1	-0.8
CSc1nc(C)cc(/C=C\c2ccccc2)c1C#N	2.7	·	·	-18.0	0.72	-38.8	·	·	·	·
C=C1C(C(=O)N2CCN(C)CC2)C1C(=O)N1CCN(C)CC1 (stereo not given)	4.9	i	3.1	-6.1	0.68	2.2	3.5	7.5	-5.8	0.1
O=S(=O)(NC1CCCC1)c1ccc(S(=O)(=O)NC2CCCC2)cc1	4.0	·	·	7.8	0.716	0.7	·	·	·	-0.1
Cc1ccc(OCC(=O)N2CCC(C)CC2)c([N+](=O)[O-])n1	4.9	i	0.3	·	0.703	4.0	19.2	7.1	0.7	0.3
O=S(=O)(Nc1ccc2oc(-c3ccccc3)nc2c1)c1ccccc1	2.4	i	-3.8	-12.2	0.671	-6.9	-20.1	-22.9	32.9	-0.5
CC(=O)NCCCc1c[nH]c2ccc(Cl)cc12	-3.9	·	·	-1.4	0.695	3.6	·	·	·	0.2
COc1cccc(CN2C[C@]34C=C[C@@H](C[C@@H]3S2(=O)=O)O4)c1	-5.7	i	-3.6	-3.4	·	4.4	13.2	13.2	-10.0	-0.3
O=C(NC1(C(=O)NC2CCCC2)CCCCC1)c1ccc2c(c1)OCO2	·	·	·	-7.0	0.714	-5.3	·	·	·	0.7
CCOC(=O)C(C)Oc1cccc2c(=O)n(CC(=O)N3CCc4ccccc43)ccc12 (stereo not given)	-0.6	i	-1.0	0.1	0.694	1.9	0.0	10.1	-7.6	0.4
Cc1cccc(/C=N/NC(=O)c2cc(Br)ccc2OCc2ccccc2)n1	·	i	-0.5	17.8	·	·	-6.5	-32.7	-6.6	-0.8
Nc1ccc(C(=O)OCc2nc3ccccc3s2)cc1	2.3	i	0.8	4.0	·	·	·	·	·	-2.2
COc1ccc(-c2ccc(C#N)c(OC(=O)c3c(Cl)cccc3Cl)n2)cc1	-1.1	·	·	-6.9	0.712	-21.8	·	·	·	0.1
Cc1[nH]n(-c2ccccc2)c(=O)c1C1(C(F)(F)F)C(=O)N(c2ccccc2)C2=C1C(=O)CC(C)(C)C2 (stereo not given)	-12.1	·	·	1.3	0.652	1.3	·	·	·	0.2
CCOC(=O)Cc1csc(SCc2nc3ccccc3c(=O)[nH]2)n1	-1.8	·	·	1.8	0.713	3.3	·	·	·	-0.1
COc1cc(OC)cc(C(=O)NCC2CCCN(C(=O)c3csc(C(C)C)n3)C2)c1 (stereo not given)	0.4	i	-0.8	-11.9	0.724	1.4	12.1	2.1	5.2	0.0
CCOc1cc(C#N)c(NC(=O)c2cccnc2)cc1OCC	9.5	·	·	-16.7	0.741	4.8	·	·	·	0.1
O=C(O)CN1C(=O)/C(=C2\C(=O)N(Cc3ccccc3Cl)c3ccccc32)SC1=S	3.5	i	0.3	-9.6	0.666	9.8	5.5	-0.9	0.6	?
COCCNC(=O)C1CC2Cn3c(nc4cc(Cl)c(Cl)cc43)C2N1C (stereo not given)	-6.1	i	-2.2	-6.3	0.645	-0.9	8.8	15.2	6.0	0.6
Cc1cccc(NC(=O)c2nc[nH]c2C(=O)N[C@H](C)c2ccccc2)c1	1.7	i	7.1	·	·	·	-8.6	-12.7	-5.7	-1.2
O=C(CSc1nnc(-c2cccnc2)n1CCN1CCCCC1)Nc1cccc(Cl)c1	-12.6	·	·	8.5	0.684	1.4	·	·	·	0.2
COc1ccc(NC(=O)COC(=O)CCCc2c[nH]c3ccccc23)cc1OC	-5.4	i	7.7	-3.8	0.724	3.3	-15.2	-4.0	-2.1	-1.4
O=C(NCCC(=O)N1CCN(c2ccc(F)cc2)CC1)c1ccco1	·	i	-0.9	·	0.66	0.9	10.2	4.6	1.3	·
CNC(=O)NC(=O)COC(=O)c1n[nH]c2ccccc12	4.1	i	-1.5	10.8	0.683	-0.6	10.2	4.3	0.8	1.3
COc1ccc(NC(=O)CN(C)C(=O)c2ccc(S(=O)(=O)Nc3ccccc3C)cc2)cc1	·	i	13.0	·	0.704	5.9	-6.0	1.9	-2.4	·
Cc1ccc(C(=O)CSc2nc(C(C)C)nc3ccccc23)cc1	-1.4	i	-11.2	1.4	0.653	-2.7	6.1	3.9	-4.2	-2.1
CCN(Cc1ccccc1)C(=O)CCc1nc(-c2ccc(C)cc2)no1	-6.6	·	·	32.4	0.729	2.1	·	·	·	0.2
O=S(=O)(Nc1cc(Cl)ccc1-n1cncn1)c1ccc(F)cc1	22.3	+	-6.5	·	0.713	-0.5	-9.4	-22.1	-0.4	-0.7
CC(=O)C1=C(O)C(=O)N(Cc2cccnc2)C1c1ccccc1Cl (stereo not given)	0.9	·	·	-14.2	0.745	-0.6	·	·	·	0.0
N#Cc1ccc(Oc2ncccn2)cc1	·	i	-6.5	-18.0	0.667	4.2	5.1	5.6	-1.6	-1.0
CCOc1ccc(-c2ccc(C=O)o2)c([N+](=O)[O-])c1	-0.4	·	·	-19.7	·	0.6	·	·	·	0.0
CCCCc1cc(=O)oc2c(C)c(OCC(=O)NCc3ccccn3)ccc12	-4.9	i	3.1	-8.4	0.718	-4.1	9.2	4.8	-7.8	-0.2
CN(CC(=O)Nc1ccc(F)c(F)c1F)C(=O)c1nn(Cc2ccccc2)c(=O)c2ccccc12	5.3	i	-0.9	·	0.691	1.2	-4.4	-9.1	-3.1	-0.7
CC1=NOC(=O)/C1=C\c1ccc(-c2ccc(Br)cc2)o1	·	·	1.4	19.4	0.596	3.7	-9.9	1.9	9.9	·
O=C(CSc1nc2cc(C(=O)O)ccc2c(=O)n1-c1ccc(F)cc1)Nc1ccc(F)c(F)c1F	-8.2	i	1.3	3.3	0.633	1.9	-7.9	-2.7	1.8	-0.3
COCCn1c(Br)nc2c1c(=O)n(C)c(=O)n2C	1.1	i	-4.6	-12.7	0.661	-2.3	3.0	7.1	2.1	0.6
CC(OC(=O)Cc1ccc(F)cc1)C(=O)NCc1ccc2c(c1)OCO2 (stereo not given)	-4.9	i	-9.6	1.2	0.719	0.9	-4.2	7.1	4.1	-0.2
CCCCn1c(Cc2ccccc2)nnc1SCC(=O)Nc1cc(C)on1	1.2	·	·	-7.8	0.734	3.3	·	·	·	-0.9
S=C(Nc1ccc2cn[nH]c2c1)Nc1ccc(Cl)cc1Cl	0.1	i	1.3	27.3	0.656	3.9	-27.6	-46.8	-2.9	-1.2

Copied from the list.
S=C(Nc1ccc2cn[nH]c2c1)Nc1ccc(Cl)cc1Cl in Beta apoptosis → 0.1
CCOc1ccc(-c2ccc(C=O)o2)c([N+](=O)[O-])c1 in T cruzi repl → -19.7

(more compounds)
SMILES	Beta apoptosis	FGF22 binding	AF4-AF9 inh	T cruzi repl	Ecoli growth	UCH37 DUB inh	Ecoli rRNA inh	Ecoli rRNA inh OD600	Ecoli rRNA inh RFP	Bfl-1 A1 inh
CCOc1ccc(S(=O)(=O)Nc2ccc(C(=O)N3CC(C)OC(C)C3)cc2)cc1 (stereo not given)	4.0	i	-2.1	1.3	0.644	2.3	-3.1	-4.5	-0.6	0.0
COc1ccc(NC(C)C(=O)Nc2ccc(C#N)cc2)cc1Cl (stereo not given)	-5.0	·	·	3.0	0.637	-0.3	·	·	·	0.4
Cc1cc(C)cc(NC(=S)NC2CC3CCCC(C2)N3C2CCCC2)c1 (stereo not given)	1.9	i	8.6	-3.5	0.662	4.9	11.9	6.0	4.7	0.1
Cc1ccc(SCC(=O)NNC(=O)C2CCCCC2)cc1	-2.3	·	·	-10.5	0.751	-0.4	·	·	·	1.0
O=C(c1ccc(-c2ccccc2)cc1)N1CCN(c2ccccn2)CC1	-3.4	i	-1.5	5.7	0.638	3.7	-24.8	-26.6	17.9	-0.3
CC(=O)c1cccc(NC(=O)NC(C)c2ccc3c(c2)OCO3)c1 (stereo not given)	0.4	i	-2.9	-4.9	0.712	2.0	-2.1	1.1	-4.9	-0.5
Cc1nc(-c2coc3cc(OCC(=O)O)ccc3c2=O)cs1	11.8	·	·	-12.4	0.65	-7.2	·	·	·	-12.0
CCCCCNC(=O)C(=O)C1C(=O)Nc2ccccc21 (stereo not given)	-5.4	i	5.1	1.8	0.64	6.8	2.5	-2.5	-4.9	0.1
Cc1cc(-c2nnc(SCC(=O)Nc3nc(-c4ccccc4)cs3)o2)no1	-2.8	i	-2.6	-10.9	0.715	3.7	-0.2	4.9	1.2	0.4
O=C1COc2ccc(C(=O)c3ccccc3C(=O)NCc3ccco3)cc2N1	-3.7	·	·	-12.4	0.708	0.7	·	·	·	0.1
CSc1nsc(SCC(=O)Nc2ccc(F)cc2)n1	-10.1	i	-7.7	16.3	0.618	0.5	-10.7	-15.6	-2.5	0.2
OCC1(CCc2ccccc2)CCN(Cc2ccc3nsnc3c2)CC1	·	i	0.3	17.5	0.701	-2.1	6.1	4.4	1.7	0.0
COc1ccc(S(=O)(=O)Nc2ccccc2C(=O)N2CCOCC2)cc1Cl	·	i	-2.7	1.0	0.69	4.8	-0.1	0.5	-0.9	2.2

Record cards, as listed above. Screens in order: Beta apoptosis, FGF22 binding, AF4-AF9 inh, T cruzi repl, Ecoli growth, UCH37 DUB inh, Ecoli rRNA inh, Ecoli rRNA inh OD600, Ecoli rRNA inh RFP, Bfl-1 A1 inh
Results for CCCCc1cc(=O)oc2c(C)c(OCC(=O)NCc3ccccn3)ccc12 = -4.9, i, 3.1, -8.4, 0.718, -4.1, 9.2, 4.8, -7.8, -0.2
Results for Cc1cc(C)cc(NC(=S)NC2CC3CCCC(C2)N3C2CCCC2)c1 (stereo not given) = 1.9, i, 8.6, -3.5, 0.662, 4.9, 11.9, 6.0, 4.7, 0.1
Results for Cc1ccc(OCC(=O)N2CCC(C)CC2)c([N+](=O)[O-])n1 = 4.9, i, 0.3, ·, 0.703, 4.0, 19.2, 7.1, 0.7, 0.3
Results for COc1ccc(S(=O)(=O)Nc2ccccc2C(=O)N2CCOCC2)cc1Cl = ·, i, -2.7, 1.0, 0.69, 4.8, -0.1, 0.5, -0.9, 2.2
Results for CSc1nc(C)cc(/C=C\c2ccccc2)c1C#N = 2.7, ·, ·, -18.0, 0.72, -38.8, ·, ·, ·, ·

These rows are one share of the data. The share of hits here may be higher or lower than overall.
